Compound activity (PubChem BioAssay)
RN4220 kill: S. aureus RN4220 growth inhibition; AID 1259311; OD600, 16 h; inhibition, % (test concentration not listed); actives 0.33% (n = 330,000);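 active = z-score of -3 or lower and OD600 up to 0.18 on both plates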;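 note: plate controls were untreated cells for no effect and reference antibiotic for full effect; stock transfer was 100 nL into about 80 µL; one replicate is shown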
PrP 5UTR inh: suppresses PrP 5' UTR mRNA reporter expression. cell-based PrP 5' UTR mRNA reporter, plate reader. inhibition, % (no concentration beside the values). actives 0.35% (n = 340,000). AID 488862;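 active = every replicate at 50% or more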;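 note: 0 = median of the neutral control wells; tested in H4 reporter cells; numbers are from one replicate; inactives centre near -14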
Mtb hypoxia rep: Mtb hypoxia fluorescent reporter inhibition; M. tuberculosis hypoxia-regulated fluorescent reporter, fluorescence; actives 0.1% (n = 300,000); fluorescence inhibition, % (concentration not given with the values);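 active = 35 to 45% if threefold the growth effect, above 45% if 1.5-fold the growth effect; inactive = the rest, general growth blockers included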;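 note: wells of about 50 µL received 100 nL stock; 0% = vehicle wells and 100% = reference inhibitor wells; whole bacteria with a GFP reporter of the hypoxia response; strong numbers were not always called active; many hits fall short of the cut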
ugtP null kill: kills S. aureus RN4220 lacking UgtP; growth inhibition, % (concentration not given with the values); actives 0.54% (n = 330,000); S. aureus RN4220 ugtP deletion, OD600 growth, 16 h; some inactives read as strong as hits;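 active = z-score under -3 and OD600 up to 0.15 on both plates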;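 note: plate controls were untreated wells for no effect and antibiotic for full effect; wells of about 80 µL received 100 nL stock; the first replicate is given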
Autofluor counter: flagged as autofluorescent in microsphere protease counterscreen; compound autofluorescence counterscreen, microsphere flow cytometry; active compounds read high; fluorescence intensity (no concentration beside the values); actives 3.1% (n = 360,000); AID 624483;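 active = at least 3 SD above the mean of all compounds, about 16000 in these data; inconclusive = too few beads counted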;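 note: 100 nL of 1 mM stock went into each well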
BJeLR viability: kills HRASV12-expressing BJeLR cells; BJeLR (HRASV12) viability, CellTiter-Glo ATP luminescence, 48 h; reference of the scale not given here; inhibition, % (no concentration beside the values); actives 0.17% (n = 300,000);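 active = replicate mean above 50%; inconclusive = above 50% but judged a plate artefact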;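 note: 50 nL library stock added to about 25 µL; numbers are from one replicate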
Mtb hypoxia rep growth: also measured in Mtb hypoxia rep; calls as there; growth inhibition, %; measured here: M. tuberculosis growth (absorbance);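 0% = vehicle and 100% = reference antibiotic; read after six days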
Active calls of the source: *; ? = inconclusive; / = not tested or not shown.

Molecule,BJeLR viability,PrP 5UTR inh,RN4220 kill,Mtb hypoxia rep,Autofluor counter,Mtb hypoxia rep growth,ugtP null kill
CCCCCCc1nc2ccccc2c(=O)n1N,-3,-5,5.2,/,3529,/,2
CC(C)Cn1c(SCC(=O)Nc2ccc(Cl)cc2F)nc(O)cc1=O,/,-4,11,-3,3070,1,-11
N#C/C(=C\c1ccc(OC(=O)c2cccs2)cc1)c1nc2ccccc2[nH]1,1,-66,/,/,2573,/,/
N=C1S/C(=C\c2cccc3ccccc23)C(=O)N1c1ccc(F)cc1,-18,-8,-18,4,2248,2,-26
CC(C)(C)C1CCc2c(sc(NC(=O)c3cccs3)c2C(=O)N2CCCCC2)C1 (configuration not stated),3,-8,-3.6,/,2403,/,-14
CSc1ccc(NC(=O)Nc2ccccc2C(N)=O)cc1,-5,-40,0.9,5,2986,5,0
CCCCCC(=O)Nc1cccc(C2=NOC3(C2)C[C@@H](C(N)=O)N(C(=O)C2(C)CC2)C3)c1 (some centres not stated),13,-18,/,/,3255,/,/
COc1ccc(C(=O)Nc2cc(Cl)ccc2N2CCOCC2)cc1S(=O)(=O)N1CCOCC1,/,-1,1.3,7,4736,7,0
CCCCCC(O)CCc1n[nH]c(=S)n1-c1ccccc1 (configuration not stated),2,-8,5.4,15,3464,14,0
CN1/C(=C\C(=O)CSc2ncn[nH]2)C(C)(C)c2ccccc21,6,-15,6.2,14,2056,5,10
COc1ccccc1OCCNC1CCCC1,2,-25,4.0,4,21707*,9,0
Cc1ccc(-n2c(=O)[nH]cc(C(=O)N3CCc4ccccc43)c2=O)cc1,-5,-30,4.4,10,9143,18,4
Cc1cccc(-c2cc3nc(C)cc(C)n3n2)c1,-5,-70,7.0,9,3592,7,-1
Cc1nc(=O)c(-c2ccccc2)c(C)n1-c1ccccc1O,-9,-3,-0.4,/,4828,/,2
CNS(=O)(=O)c1cn(CC(=O)NCc2ccc(OC)cc2)cc1S(=O)(=O)NC,-9,-14,0.1,6,3912,-4,7
COc1ccc(CCn2c(=N)c(S(=O)(=O)c3ccc(Cl)cc3)cc3c(=O)n4ccccc4nc32)cc1,-8,-20,6.7,5,21901*,-1,9
CN(CC(=O)Nc1ccccc1C(=O)NC1CC1)Cc1ccc(Cl)cc1,/,-10,2.8,25,3969,7,7
Nc1nc2n(n1)C(c1ccco1)CC(c1ccc(Cl)cc1Cl)N2 (configuration not stated),-8,-1,0.0,-6,2488,1,-3
Cc1cc(=O)[nH]c(NN=C2CCCCC2C)n1 (configuration not stated),/,/,-0.2,-7,2949,4,-5
Cc1ccc2nc(Cl)c(CNCc3ccccc3)cc2c1,4,-9,/,/,2469,/,/
O=c1c2ccccc2nnn1-c1ccc(Br)cc1,-8,-51,0.5,1,4468,6,-2
CCOC(=O)Cn1c(=O)c(-c2ccccc2N)nc2ccccc21,-2,-6,-0.2,/,5236,/,6
CC(=O)N1CCN(CCS(=O)(=O)c2cc(Cl)ccc2Cl)CC1,/,-19,4.5,15,3525,10,5
O=C(COC(=O)c1ccc(Br)o1)NCc1ccc(Cl)cc1,/,-26,5.5,6,3407,7,1
N#Cc1cnn(-c2nc(SCc3ccccc3)nc3sc4c(c23)CCCC4)c1N,-7,-22,-3.1,-12,5338,5,-13
CC(C)Cn1c([N+](=O)[O-])nc2c1c(=O)[nH]c(=O)n2C,-2,2,-1.4,/,/,/,28
CC(Oc1ccc(Cl)cc1Cl)C(=O)OCC(=O)c1c(N)n(C)c(=O)n(C)c1=O (configuration not stated),/,-14,5.5,4,3334,-1,-3
Nc1ccc2cn[nH]c2c1,2,-7,/,/,4279,/,/
COc1ccc(Cc2nnc(N/N=C/c3ccc(O)cc3)[nH]c2=O)cc1OC,2,32,/,/,2487,/,/
COc1ccc(-c2cc(-c3ccccc3)c(C#N)c(SCC(=O)O)n2)cc1,-9,-30,9.1,2,3243,2,-5
CCOc1ccc(CCN2CN(CC)CNC2=S)cc1OCC,1,-21,-0.2,4,4342,5,4
COC(=O)C1CCN(c2nc3ccccc3nc2C(C#N)C(=O)OCC(C)C)CC1 (configuration not stated),-2,-18,-0.5,1,8595,7,-13
Fc1ccccc1COc1ccc(Br)cc1CNCc1cccnc1,5,-10,0.6,5,2532,4,-16
CCn1c(SCC(=O)Nc2cc(OC)c(OC)c(OC)c2)nnc1-c1cccs1,2,-12,-3.1,-3,6715,-4,10
COc1ccc2c(Cl)c(C(=O)N/N=C3\CCCC(=O)C3)sc2c1,-1,-40,/,/,5073,/,/
Cc1cc(=O)[nH]c(SCC(=O)N2CCc3ccccc3C2)n1,-17,-3,4.6,-2,20691*,1,3
CCN(CC)CCN=Cc1c(O)n(Cc2ccco2)c(=O)[nH]c1=O,-8,-10,0.0,-3,/,-7,7
Cc1cc(C(=O)OCC(=O)Nc2ccccc2C#N)c(C)o1,/,-18,2.4,8,?,6,3
CC(C)(C)c1ccc(OCCC(=O)OCC(=O)Nc2cccnc2Cl)cc1,-3,-21,2.6,3,5209,0,6
CCOc1ccc(S(=O)(=O)N2CCN(C(=O)CN3C(=O)NC4(CCCC4)C3=O)CC2)cc1,0,7,5.9,-1,/,10,6

Next section, starting with the last 5 of the part before.
Molecule,BJeLR viability,PrP 5UTR inh,RN4220 kill,Mtb hypoxia rep,Autofluor counter,Mtb hypoxia rep growth,ugtP null kill
Cc1cc(=O)[nH]c(SCC(=O)N2CCc3ccccc3C2)n1,-17,-3,4.6,-2,20691*,1,3
CCN(CC)CCN=Cc1c(O)n(Cc2ccco2)c(=O)[nH]c1=O,-8,-10,0.0,-3,/,-7,7
Cc1cc(C(=O)OCC(=O)Nc2ccccc2C#N)c(C)o1,/,-18,2.4,8,?,6,3
CC(C)(C)c1ccc(OCCC(=O)OCC(=O)Nc2cccnc2Cl)cc1,-3,-21,2.6,3,5209,0,6
CCOc1ccc(S(=O)(=O)N2CCN(C(=O)CN3C(=O)NC4(CCCC4)C3=O)CC2)cc1,0,7,5.9,-1,/,10,6
O=C(NCc1cccs1)c1ccc2c(c1)OCCO2,-9,-16,8.0,13,10216,15,2
C=CCNC(=O)C1CC2Cn3c(nc4ccccc43)C2N1C (configuration not stated),8,-20,5.1,12,2780,9,-2
COCCNC(=O)CN(Cc1ccc2c(c1)OCO2)C(=O)CCC(=O)Nc1nccs1,0,-4,0.8,/,2035,/,5
CC(=O)Nc1ccc(NC(=O)C(F)(F)F)cc1,1,-12,1.5,1,22771*,-6,-9
CCC(C)C(NC(=O)Nc1ccc(C(C)=O)cc1)C(=O)OC (configuration not stated),/,/,3.2,3,/,4,8
S=C1NC2(CCCCC2)Nc2ccccc21,6,-16,3.6,3,4284,0,20
Cc1ccc(S(=O)(=O)c2nc(-c3ccco3)oc2NCC2CCCO2)cc1 (configuration not stated),/,-18,3.4,3,2378,5,1
O=C(NCC(=O)N1CCN(C(=O)c2ccco2)CC1)c1ccc(Cl)cc1,-2,-16,-1.8,3,5545,1,2
CCCCCCCC(=O)NN=C(C)c1ccc(N)cc1,/,/,0.9,-2,/,2,13
CCN(CC)c1ccc(/C=N/NC(=O)Cc2nnc(NC(=O)Nc3ccccc3)s2)cc1,19,-24,/,/,2695,/,/
CCOC(=O)C1C(=O)C=C(/C=C/c2ccccc2)CC1c1ccc(Cl)cc1 (configuration not stated),10,-19,-3.5,5,16539*,1,6
COc1ccc(CNC(=O)C(c2ccncc2)N(C(=O)Cc2cccs2)c2ccc(C)cc2)cc1 (configuration not stated),-5,-18,2.3,5,7766,6,3
CN(C)S(=O)(=O)c1ccc(C(=O)NC(=O)CSc2nncs2)cc1,/,-55,2.4,7,3393,-2,0
CC1CC(C)CN(CCCNC(=O)c2ccc3c(c2)ncn3C2CCCC2)C1 (configuration not stated),6,-21,/,/,5020,/,/
COc1cccc(-c2cc(N3C(=O)Nc4ccccc4N3O)n[nH]2)c1,-4,-10,/,/,8477,/,/
CC(C)c1ccc(C(C)NCCS(=O)(=O)c2ccc(Br)cc2)cc1 (configuration not stated),-3,-19,3.8,3,4055,-4,0
Cc1ccc(-n2c(C)c3c(C)nnc(C)c3c2C)cc1C,12,-16,-1.3,/,4114,/,-6
CN1CCN(C(=O)c2ccc(-c3ccc(Br)cc3)o2)CC1,/,-76,-2.1,17,8628,13,1
COc1ccc(CNCc2cc3c(cc2[N+](=O)[O-])OCO3)cc1,-4,-11,4.1,-2,3998,2,12
CC(OC(=O)c1ccccc1NCCO)C(=O)NCC(=O)Nc1ccc(F)c(F)c1F (configuration not stated),-4,-4,1.2,1,5599,3,-1
Cc1ccc(OCC(=O)NCc2cccs2)c([N+](=O)[O-])n1,-1,-15,7.5,10,2690,2,-5
COc1ccc(C(N)c2nccc3cc(OC)c(OC)cc23)cc1OC (configuration not stated),1,-17,-2.0,-8,3959,10,-3
COC(=O)c1ccc(Oc2coc3cc(OCc4ccc([N+](=O)[O-])cc4)ccc3c2=O)cc1,21,-12,4.4,6,2999,1,-2
COc1cc(C=NN=C(C(=O)c2ccccc2)c2ccccc2)cc(OC)c1O,/,/,9.5,12,/,5,-4
Cc1ccc(C(=O)NCC(C)(C)N2CCOCC2)s1,-1,-11,1.3,/,/,/,5
CCOC(=O)c1cc(-c2ccc(F)cc2)n(CC(=O)N2CCCC2)c1C,5,-10,1.2,/,2436,/,1
c1ccc2oc(NC3=NCN(CC4CCCO4)CN3)nc2c1 (configuration not stated),6,-71,-1.0,-8,3645,5,-3
Cc1ccc(C(=O)NCC(=O)N/N=C/c2sccc2C)cc1[N+](=O)[O-],-8,-5,/,/,3576,/,/
Cc1ccc(C)c(N2CCN(C(=O)c3ccc(Cn4c(=S)[nH]c5ccc(N6CCOCC6)cc5c4=O)cc3)CC2)c1,-37,-56,2.6,4,4330,10,20
CCC(C(=O)OC)n1cnc2c(nnn2-c2ccc(OC)cc2)c1=O (configuration not stated),2,-23,3.7,7,10840,8,3
COc1cc(OC)cc(-c2c(-c3ccc(C(C)=O)cc3)c3cc(-c4cccc5[nH]ccc45)ccc3n2C)c1,/,-18,0.9,9,3381,12,-2
COc1ccc(C(=O)/C=C/Nc2cc(C)ccn2)cc1,6,-6,0.7,6,4249,6,-5
CCOc1ccc(N2C(=O)CC(Sc3nc(CC(C)C)ccc3C#N)C2=O)cc1 (configuration not stated),1,-9,9.1,7,?,9,-1
CCOc1ccc(CCNC(=O)COC(=O)c2ccc(OC)c(OC)c2OC)cc1OCC,-15,-17,10,2,4273,-7,6
S=c1[nH]nc(COc2ccc(Cl)cc2)n1C1CCCCC1,-7,-14,5.9,-3,6589,6,8
CCOc1cc(CNCc2ccccn2)cc(Cl)c1OC,5,-13,3.3,10,3282,8,-1
CN(C)c1ccc(/C=C(/NC(=O)c2ccccc2)C(=O)N2CCCC2)cc1,0,-7,1.0,-12,6148,-7,10
COc1nc(-c2ccccc2)ccc1-c1noc(-c2ccccc2F)n1,-8,-43,-10,16,3403,18,-23
O=Cc1ccc(N2CCCC2)c(F)c1,6,-18,5.3,/,4316,/,7
COc1ccc(OC)c(Cc2nnc(CCC(=O)N3CCCCCC3)o2)c1,-4,-65,2.6,10,4403,13,2
CC1CCN(Cc2ccc(-c3nnn(CC(=O)Nc4ccccc4Cl)n3)cc2)CC1,3,-1,13,2,4661,14,0
CCOc1cc2c(cc1OCC)-n1cccc1C(c1ccc(F)cc1)NC2 (configuration not stated),8,-10,-2.9,-8,3587,-10,-11
NC(=S)COc1ccccc1,-8,-15,2.9,12,4076,-3,10
Cc1ccc(NC(=O)C2(N3CCC3=O)CCCCC2)cc1,3,-7,8.0,-1,2514,6,9
CCN(CC(=O)Nc1cccc(Br)c1)Cc1nc2ccccc2c(=O)[nH]1,/,-8,-17,1,2570,2,-15
COc1ccc(N(C)S(=O)(=O)c2cccc(C(=O)NC3CCCC(C)C3C)c2)cc1 (configuration not stated),6,-1,-1.0,-2,5435,-3,0
